# Screening data: PubChem BioAssay, several laboratories
# MT1-MMP reporter: inhibitors of MT1-MMP promoter transcription, cell-based, luciferase reporter, luminescence (AID 618). MT1-MMP promoter luciferase reporter cells, luminescence. calls from a first round at 10 µM; hits with a dose series show EC50 in µM. 0.62% of 87,000 active;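 active = over half of the reporter light lost at 10 µM or EC50 under 50 µM; inactive = the rest and hits that failed the dose series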;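 also: actives suppress MT1-MMP promoter-driven transcription so potencies describe inhibitors; HT1080 fibrosarcoma cells; overnight exposure; toxic or luciferase-blocking compounds were not removed from the actives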
# WNV protease inh: blocks West Nile virus NS2B-NS3 protease activity; AID 577; P06935; z-score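 (tested at a level between 10 and 100 µM)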; WNV NS2B-NS3 protease, fluorogenic substrate Ex360/Em465; active compounds read low; 0.18% of 65,000 active;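 active = z-score at -3 or under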;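 also: score is relative to mean and spread of the compound wells of a plate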
# Target sequence (P06935 1371-1501 limits assumed): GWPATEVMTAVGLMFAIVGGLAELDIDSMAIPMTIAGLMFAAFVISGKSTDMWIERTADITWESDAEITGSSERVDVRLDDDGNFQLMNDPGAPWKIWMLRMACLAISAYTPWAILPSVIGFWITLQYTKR
# Target sequence (P06935 1502-1679 limits assumed): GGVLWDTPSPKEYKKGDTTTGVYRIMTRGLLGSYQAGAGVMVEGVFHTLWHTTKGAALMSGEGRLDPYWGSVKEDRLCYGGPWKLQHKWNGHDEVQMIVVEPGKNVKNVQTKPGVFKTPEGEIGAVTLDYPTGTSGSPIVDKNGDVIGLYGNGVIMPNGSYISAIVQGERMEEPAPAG
# Hsc70: small molecules displacing fluorescent ligand from Hsc70 – biochemical, fluorescence polarization, primary screen (AID 568) | 83,000 tested, under 10 active | Hsc70 fluorescence polarization, probe displacement; higher % means a stronger effect; strong numbers were not always called active | displacement, % at 20 µM; hits with a dose series show IC50 in µM;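 active = displacement above 50% without optical interference and an IC50 on retest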;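 also: ATPase domain with a fluorescein-tagged ATP probe; 0% = vehicle and 100% = excess ADP; read after one hour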
# * = called active by the depositor; i = inactive; / = not tested or not shown. This is a subset (hit frequency here may not be typical).
entry	SMILES	MT1-MMP reporter	WNV protease inh	Hsc70
1	O=C(CS(=O)(=O)c1cn(Cc2cccc(F)c2)c2ccccc12)N1CCOCC1	i	-0.31	-6.4%
2	CCN(C(=O)CN1CCN(c2ccccc2O)CC1)c1c(N)n(Cc2ccccc2)c(=O)[nH]c1=O	i	/	5.5%
3	Cc1cccc(-n2nnc(C(=O)NCc3ccco3)c2N)c1	i	0.28	-5.4%
4	COc1ccc2cc(C(c3nnnn3CCc3ccccc3)N3CCC(O)CC3)c(=O)[nH]c2c1 (stereo unspecified)	i	-0.15	-12.7%
5	O=C(CSc1nc2ccccc2c(=O)[nH]1)c1cccs1	i	0.27	-3.1%
6	COc1ccc(-c2cc(C(F)(F)F)nc(SCCC(=O)N3CCN4CCCC4C3)n2)cc1 (stereo unspecified)	i	0.03	-4.8%
7	COc1ccccc1C1C(C(N)=O)=C(C)Nc2ncnn21 (stereo unspecified)	i	0.29	-3.1%
8	Cc1cccc2cc(C(c3nnnn3Cc3ccc4c(c3)OCO4)N3CCCC3)c(=O)[nH]c12 (stereo unspecified)	i	-0.17	-7.5%
9	Cc1sccc1C1C(C#N)=C(N)SC(N)=C1C#N	i	-1	-2.0%
10	O=C1CCC(=O)N1CNc1ccccn1	i	0.82	-0.9%
11	CCOC(=O)C1CCN(C(c2cc(OC)c(OC)c(OC)c2)c2sc3nc(C)nn3c2O)CC1 (stereo unspecified)	i	-0.28	4.3%
12	CC(=O)OCCn1c(=O)c2cc3c(=O)n(CCOC(C)=O)c(=O)c3cc2c1=O	i	-0.46	-7.1%
13	O=C(Nc1nncs1)c1ccccc1NS(=O)(=O)c1cccs1	i	1.77	-3.3%
14	O=C(NCc1ccccc1)c1c[nH]c2ccc(S(=O)(=O)Nc3ccc4c(c3)OCCO4)cc2c1=O	i	1.51	-9.1%
15	COc1ccc(-c2cc(C(=O)N3CCN(Cc4ccccc4)CC3)no2)cc1OC	i	0.79	-3.0%
16	Cn1c(SCC(=O)Nc2cc(=O)n(C)c(=O)n2C)nnc1-c1cccs1	i	2.65	-1.7%
17	O=C1c2ccccc2C(=O)N1CC(O)COCc1ccccc1 (stereo unspecified)	i	-1.38	-4.0%
18	CC1(C)Cc2cccc(OCC(=O)Nc3nccs3)c2O1	i	0.68	-4.3%
19	CC(C)c1nc(N2CCN(C(=O)c3ccccc3)CC2)c(C#N)c2c1COC(C)(C)C2	i	-0.82	3.4%
20	CCN(CC)CCN1C(=O)c2oc3ccccc3c(=O)c2C1c1ccc(F)cc1 (stereo unspecified)	i	-0.48	-4.3%
21	O=C(c1cccs1)N1CCN(Cc2nc3ccccc3c(=O)[nH]2)CC1	i	-0.77	-2.0%
22	O=C(NCCCNCc1ccccc1)c1ccc(/C=N/O)nc1	i	-1.05	0.2%
23	Cc1ccc(C(C)C)c(OCC(=O)Nc2ccccc2N2CCN(C)CC2)c1	i	0.1	1.8%
24	Cc1occc1C(=O)Nc1ccc2c(c1)OCCO2	i	0.15	-0.4%
25	CCN(CC)C(=O)c1sc(NC(=O)Cc2ccccc2)c(C#N)c1C	i	/	3.6%
26	CC(C)COC(=O)C1C(=O)CC(C)(O)C(C(=O)OCC(C)C)C1c1cccnc1 (stereo unspecified)	i	0.02	0.1%
27	CCc1nc(N)c(C#N)c(-c2cccc3ccccc23)c1C	i	/	-1.7%
28	COc1cc(OC)c(NC(=O)CCNS(=O)(=O)c2cc(Br)cnc2N)cc1Cl	i	0.54	-3.6%
29	CCOC(=O)C1=C(c2ccccc2)NC(SC)=C(C#N)C1c1ccco1 (stereo unspecified)	i	0.56	-6.2%
30	CC(C)N1CC(O)=C(c2ccccc2)C1=N	i	-0.24	6.2%
31	O=C(Cn1nc(-c2ccc(Cl)cc2)ccc1=O)NCCCN1CCN(Cc2ccccc2)CC1	i	0.37	-5.7%
32	Cc1ccccc1-c1c(C)oc2cc(O)ccc2c1=O	i	1.54	-0.1%
33	O=C(O)c1nc(N2CCOCC2)nc(N2CCOCC2)n1	i	/	5.2%
34	Cc1ccc(C)c(NC(=O)CNS(=O)(=O)c2ccccc2)c1	i	2.93	0.8%
35	Cc1cccnc1NC(=O)C1CCN(S(=O)(=O)c2ccc3c(c2)CCC(=O)N3)CC1	i	0.45	-3.7%
36	Nc1ncnc2nc(SCc3ccccc3)[nH]c12	i	-0.47	8.2%
37	CCOc1cc2c(C)cc(=O)oc2cc1Cl	i	0.12	-0.1%
38	O=C1C2Sc3[nH]c(=O)sc3C(c3ccccc3)C2C(=O)N1c1ccccc1 (stereo unspecified)	i	/	0.7%
39	Cn1c(=O)[nH]c(=O)c2[nH]c(CN3CCN(C(=O)c4ccco4)CC3)nc21	i	-0.53	0.7%
40	COc1c2occc2c(OC)c2c(=O)cc(C(F)(F)C(F)(F)F)oc12	i	-0.55	0.2%
41	O=C(CSc1nc(-c2ccccc2)cc(C(F)(F)F)n1)NCc1ccco1	i	/	0.4%
42	CC1CCN(CCOc2cc(Cl)ccc2Cl)CC1	i	/	0.6%
43	Cn1cccc1Cc1nnc(SCC(=O)Nc2nccs2)n1CCc1ccccc1	i	-0.08	-2.8%
44	COC(=O)CNC(=O)Cn1ccc2ccccc2c1=O	i	0.75	-3.1%
45	COc1ccc(CCNC(=O)C2CCCN(Cc3nc(-c4ccccc4C)oc3C)C2)cc1OC (stereo unspecified)	i	-1.01	0.5%
46	CCOC(=O)/C=c1\s/c(=C(\C#N)C(=O)NC)n(-c2ccccc2)c1=O	i	/	-0.2%
47	O=C(NCCN1CCCCC1)Nc1ccc(F)c(Cl)c1	i	0.25	5.0%
48	Cc1cc(C)n(CCc2nc3c4ccccc4n(CC(=O)Nc4ccc(Cl)cc4F)c(=O)n3n2)n1	i	-0.65	-0.2%
49	CCOC(=O)c1cc(C(C)(C)C)oc1CN	i	-1.18	3.8%
50	COc1cccc(NC(=O)CN2CCN(c3ccc(F)cc3)CC2)c1	i	-0.56	-9.5%

# Next structures follow:
entry	SMILES	MT1-MMP reporter	WNV protease inh	Hsc70
51	CCOc1ccc(NC(=O)C2CCN(C(=O)NCc3ccccc3)CC2)cc1	i	0.03	-0.2%
52	CC(C(=O)N1CCC(C(N)=O)CC1)N(c1ccc(Oc2ccccc2)cc1)S(C)(=O)=O (stereo unspecified)	i	/	6.2%
53	CCN(CC)S(=O)(=O)c1cccc(C(=O)Nc2ccccc2C(=O)N2CCOCC2)c1	i	-0.59	6.0%
54	Cc1nnc2sc(-c3ccc(NC(=O)c4ccc(-c5ccc(Br)cc5)o4)cc3)nn12	i	-1.55	-181.9%
55	OCCNCC1(O)C2CC3CC(C2)CC1C3 (stereo unspecified)	i	-0.71	-6.0%
56	Cc1ccc(Cl)cc1NC(=O)c1ocnc1C	i	-3.37*	-1.8%
57	Cc1ccc2cc(CN(Cc3nnnn3Cc3ccco3)CC3CCCO3)c(=O)[nH]c2c1C (stereo unspecified)	i	0.46	0.7%
58	CN1CCN(S(=O)(=O)c2ccc(NC(=O)c3ccc(F)cc3)cc2)CC1	i	-0.53	0.9%
59	Cc1ccccc1Cn1c2ccccc2c2cn[nH]c(=O)c21	i	0.88	3.1%
60	COC(=O)c1ccc(C2CC(=O)NC3=C2C(=O)CCC3)cc1 (stereo unspecified)	i	-1.11	-5.8%

# By substructure, the compounds so far with bromine.
entry	SMILES	MT1-MMP reporter	WNV protease inh	Hsc70
28	COc1cc(OC)c(NC(=O)CCNS(=O)(=O)c2cc(Br)cnc2N)cc1Cl	i	0.54	-3.6%
54	Cc1nnc2sc(-c3ccc(NC(=O)c4ccc(-c5ccc(Br)cc5)o4)cc3)nn12	i	-1.55	-181.9%

# (more compounds)
entry	SMILES	MT1-MMP reporter	WNV protease inh	Hsc70
61	COc1ccc(CC(=O)NCc2ccccc2Cl)cc1S(=O)(=O)N1CCOCC1	i	-0.59	8.7%
62	NC1=NCc2ccccc21	i	-0.51	-1.1%
63	CCc1nc(NCCC(C)C)c(C#N)c2c1CCCC2	i	/	2.0%
64	CCSc1nc(C)nc2c1oc1ccccc12	i	0.21	3.2%
65	Cc1ccc(S(=O)(=O)N(C#N)c2nc(C)cc(C)n2)cc1	i	/	14.9%
66	COc1cccc(NC(=O)N2CCOCC2)c1	i	0.92	6.1%
67	C/C(N)=C(/C#N)C(=O)COC(=O)COc1ccc(Cl)cc1	i	-0.04	3.2%
68	COc1cccc(C(=O)N2CCN(Cc3ccco3)CC2)c1OC	i	-0.83	1.5%
69	CC(=O)C(Sc1nc(NC(C)(C)C)nc(N(C)C)n1)C(C)=O	i	-0.87	3.0%
70	CCC(C)C(NC(=O)C1CCC(C)CC1)C(=O)NCc1cccnc1 (stereo unspecified)	i	-0.12	2.1%

# A draw from above in order of molecular weight, high to low.
entry	SMILES	MT1-MMP reporter	WNV protease inh	Hsc70
70	CCC(C)C(NC(=O)C1CCC(C)CC1)C(=O)NCc1cccnc1 (stereo unspecified)	i	-0.12	2.1%
68	COc1cccc(C(=O)N2CCN(Cc3ccco3)CC2)c1OC	i	-0.83	1.5%
65	Cc1ccc(S(=O)(=O)N(C#N)c2nc(C)cc(C)n2)cc1	i	/	14.9%
62	NC1=NCc2ccccc21	i	-0.51	-1.1%

# Other records:
entry	SMILES	MT1-MMP reporter	WNV protease inh	Hsc70
71	O=c1[nH]c2ccccc2nc1C(F)(F)C(F)F	i	1.02	2.5%
72	NC(=O)C1CCN(C2CC(=O)N(c3cccc(F)c3)C2=O)CC1 (stereo unspecified)	i	0.13	2.6%
73	COC(=O)c1ccc(NC(=O)CSc2nnc(-c3ccccc3)n2C)cc1	i	/	4.1%
74	CCc1nnc(NC(=O)c2ccc3c(c2)C(=O)N(C(C)(C)C)C3=O)s1	i	/	0.8%
75	Clc1ccc(Oc2cnns2)cc1Cl	i	/	4.6%
76	CCc1ccccc1NC(=O)CSc1nnc(Cn2cnc3ccccc32)o1	i	/	-0.3%
77	Cc1ccccc1-c1nnc(SCC(=O)NC2CCCCC2)o1	i	-0.15	-0.8%
78	CCCn1c(SCC(=O)N2CCc3ccccc3C2)nc2c1c(=O)n(C)c(=O)n2C	i	0.58	-1.5%
79	COc1ccc(C(c2nnnn2C2CCCC2)N2CCC(C(N)=O)CC2)c(OC)c1 (stereo unspecified)	i	-0.56	-9.5%
80	OCc1csc(=Nc2ccccc2)n1-c1ccccc1	i	1.33	1.3%
81	Cn1nnnc1SCC(=O)N1CCN(c2ccccc2)CC1	i	-0.28	-0.6%
82	COc1ccc(CNC(=O)CCSc2nc(-c3ccc4c(c3)OCO4)cc(C(F)(F)F)n2)cc1	i	/	4.2%
83	O=C(NCCSCc1ccccc1)c1ccc(C2SCC(=O)N2Cc2ccccc2)cc1 (stereo unspecified)	i	/	-6.9%
84	O=C(NCCN1CCOCC1)c1cc2sccc2n1Cc1ccc(Cl)cc1	i	0.67	3.6%
85	Cc1ccc(-c2c(C)n([O-])c3c([n+]2=O)CCC3)o1	i	-0.67	-0.1%
86	N#Cc1ccccc1OCC(=O)OCC(=O)c1ccc2c(c1)NC(=O)CO2	i	2.41	-3.6%
87	CCCn1c(=S)[nH]c2cc(C(=O)NCC3CCCO3)ccc2c1=O (stereo unspecified)	i	0.03	5.0%
88	CC(c1ccco1)N(C(=O)CSc1ccc(Br)cc1)c1ccccn1 (stereo unspecified)	i	0.69	1.2%
89	COCCNC(=O)C(c1ccc(O)cc1)N(Cc1ccco1)C(=O)CCC(=O)Nc1nccs1 (stereo unspecified)	i	0.66	-2.6%
90	CCN1C(=O)c2cccc3c(S(=O)(=O)Nc4ccccc4OC)ccc1c23	i	0.22	0.9%
91	NC(=O)C1CCN(C(=O)C2c3ccccc3C(=O)N3CCc4ccccc4C23)CC1 (stereo unspecified)	i	0.9	6.5%
92	COc1cc(Cn2c(=O)oc3ccc(C)cc32)ccc1OC(C)C	i	-1.57	-3.7%
93	O=C(OCn1nnc2ccccc2c1=O)c1ccc(Br)o1	i	0.21	3.6%
94	Cc1cccc2cc(CN(Cc3ccco3)C(=O)NC3CCCCC3)c(=O)[nH]c12	i	-0.22	-5.6%
95	Cc1ccc(-c2nc3cc(NC(=O)C(C)C)ccc3o2)cc1C	i	0.07	0.0%
96	O=C(Nc1ccc2nccnc2c1)c1cnccn1	i	0.44	1.3%
97	Cc1cc(O)cc(O)c1-c1onc(C(F)(F)F)c1-c1cscn1	i	0.95	1.2%
98	COC(=O)c1cccc(NC(=O)CN2CCN(c3ccc(OC)cc3)CC2)c1	i	0.53	-0.1%
99	CN(c1ccccc1)S(=O)(=O)c1cc(C(=O)c2nccn2C)ccc1Cl	i	0.42	-5.6%
100	O=C(Nc1ccc(Nc2ccccc2)cc1)c1ccc(Br)o1	i	-0.64	-4.6%
101	CCOc1cccc(C(=O)Nc2nnc(-c3cccs3)s2)c1	i	/	2.6%
102	COc1cc(Cl)cc(C2NC(=O)NC(C)=C2C(=O)NCc2ccccc2)c1O (stereo unspecified)	i	0.95	-1.5%
103	CCOc1ccc(N(CC(=O)NC(C)CC)S(=O)(=O)c2c(C)noc2C)cc1 (stereo unspecified)	i	-0.04	-2.0%
104	O=C(CSc1nc(N2CCCCC2)nc(N2CCCCC2)n1)Nc1nccs1	i	0.96	-8.1%
105	CCOc1ccc(CNC(=O)CCn2c(=O)oc3ccccc32)cc1OC	i	-0.55	-4.0%
106	CC(CN1CCN(C)CC1)OC(=O)c1ccccc1 (stereo unspecified)	i	/	-4.2%
107	CC(C)C[C@H](NC(=O)OC(C)(C)C)c1nnc(SCC(=O)Nc2ccc(Br)cc2)o1	i	0.47	-8.3%
108	Cc1nnc(-c2cnn(C)c2N)n1Cc1ccccc1F	i	/	2.4%
